Screening results: PubChem, Broad Institute
Vaccinia inh: Vaccinia orthopox stage-specific inhibition; Vaccinia-infected cells, mCherry/Venus stage reporter fluorescence; hits give low values; some inactives read as strong as hits; activity change (mCherry), % (concentration not given with the values); 0.01% of 89,000 active; AID 1053133;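 active = mCherry past -33% and 40 or more points under the early reporter, replicates agreeing; inconclusive = past -33% without that gap or agreement; tested in A549 cells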;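 also: scaled between vehicle wells and reference inhibitor wells; 23 nL library stock went into each well; one replicate is shown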
Vaccinia inh Venus: second read-out of Vaccinia inh, no call of its own (marks repeat the call); activity change (Venus), %; measured here: Venus reporter, other viral stage;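 negative = less Venus signal; first of two replicates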
An asterisk follows results filed as active; ? = inconclusive; . = not tested or not shown. Not all compounds are listed, so the mix of outcomes need not match the whole.

Below each compound: Vaccinia inh	Vaccinia inh Venus
COCC(=O)N(C)C[C@@H]1Oc2cc(C#CC(C)(C)O)ccc2S(=O)(=O)N([C@H](C)CO)C[C@H]1C
→ 9	1
C[C@H]1CN([C@@H](C)CO)S(=O)(=O)c2ccc(/C=C/c3ccccc3)cc2O[C@@H]1CN(C)C(=O)NC1CCCCC1
→ ?	.
COc1ccc(S(=O)(=O)Nc2ccc3c(c2)C(=O)N([C@H](C)CO)C[C@@H](C)[C@@H](CN(C)S(=O)(=O)c2ccc(C)cc2)OCCCC[C@H](C)O3)cc1
→ -4	-8
C[C@H](CO)N1C[C@H](C)[C@@H](CN(C)C(=O)Nc2ccc3c(c2)OCO3)Oc2ccc(NS(C)(=O)=O)cc2CC1=O
→ -1	-3
COc1ccc(NC(=O)N(C)C[C@@H]2Oc3ncc(C#C[C@@H](C)O)cc3C(=O)N([C@H](C)CO)C[C@H]2C)cc1
→ 26	14
Cc1noc(C)c1S(=O)(=O)Nc1ccc2c(c1)C(=O)N([C@H](C)CO)C[C@H](C)[C@@H](CN(C)CC1CCCCC1)OCCCC[C@H](C)O2
→ -28	-14
C[C@@H]1CN([C@H](C)CO)C(=O)c2cccc(NC(=O)C3CC3)c2O[C@@H]1CN(C)C(=O)Nc1ccc(F)cc1
→ 10	2
Cc1ccc(S(=O)(=O)Nc2ccc3c(c2)C(=O)N([C@@H](C)CO)C[C@@H](C)[C@@H](CN(C)C(=O)Nc2ccccc2)OCCCC[C@@H](C)O3)cc1
→ -29	-19
CCNC(=O)C[C@@H]1CC[C@@H]2[C@H](COC[C@H](O)CN2S(=O)(=O)c2ccc(Oc3ccccc3)cc2)O1
→ -1	2
O=C(C1CCOCC1)N1CC(=O)N2[C@@H](CO)[C@@H](c3ccc(-c4cccnc4)cc3)[C@@H]2C1
→ 13	8
C[C@@H]1CN([C@H](C)CO)C(=O)Cc2cc(NC(=O)Nc3ccc4c(c3)OCO4)ccc2O[C@@H]1CN(C)Cc1ccncc1
→ 4	2
COc1ccc(NC(=O)N(C)C[C@H]2Oc3c(NS(=O)(=O)c4ccc(Cl)cc4)cccc3C(=O)N([C@H](C)CO)C[C@H]2C)cc1
→ -2	3
C[C@@H]1CN([C@@H](C)CO)S(=O)(=O)c2ccc(C3=CCCC3)cc2O[C@H]1CN(C)C(=O)C1CCOCC1
→ 13	5
COc1cccc(S(=O)(=O)N2CCCCN3[C@H](CO)[C@H](c4ccc(-c5cncnc5)cc4)[C@H]3C2)c1
→ 2	-8
COc1ccc(CN2[C@H](CO)[C@H]3c4ccccc4N(C(=O)c4ccccc4)C[C@H]32)cc1
→ 5	2
C[C@H]1CN([C@@H](C)CO)C(=O)c2cc(/C=C/c3ccccc3)cnc2O[C@@H]1CN(C)S(C)(=O)=O
→ 7	13
C[C@@H]1CN([C@@H](C)CO)S(=O)(=O)c2ccc(C#CC3(O)CCCC3)cc2O[C@H]1CN(C)C(=O)Cc1cccnc1
→ 27	-6
CC=Cc1ccc2n(c1=O)C[C@@H]1[C@@H](CO)[C@H](C(=O)NC3Cc4ccccc4C3)N(CC)[C@H]21 (mixture of isomers)
→ -15	12
CO[C@@H]1CN(C)C(=O)c2cc(NC(=O)Nc3ccccc3)ccc2OC[C@H](C)N(C(C)=O)C[C@H]1C
→ 1	6
O=C(NCC1CC1)[C@H]1[C@H](CO)[C@H]2Cn3c(ccc(C4=CCCC4)c3=O)[C@H]2N1Cc1ccccc1F
→ -13	-1
O=C(C[C@H]1C[C@H]2c3cc(NC(=O)Cc4ccncc4)ccc3O[C@H]2[C@@H](CO)O1)NCc1ccc2c(c1)OCO2
→ 2	9
COc1ccc(-c2cnc3c(c2)C(=O)N([C@@H](C)CO)C[C@@H](C)[C@H](CN(C)C)O3)cc1
→ 14	20
C[C@@H]1CN([C@H](C)CO)C(=O)Cc2cc(NC(=O)C3CCCCC3)ccc2O[C@@H]1CN(C)S(C)(=O)=O
→ 16	10
Cc1ccc(S(=O)(=O)N(C)C[C@H]2OCCCC[C@H](C)Oc3ccc(NC(=O)Nc4ccc(C(F)(F)F)cc4)cc3C(=O)N([C@@H](C)CO)C[C@H]2C)cc1
→ -5	-6
CCCC(=O)Nc1ccc2c(c1)OC[C@@H](C)N(CCC)C[C@@H](C)[C@@H](OC)CN(C)C2=O
→ 15	10
CO[C@@H](CN(C)S(=O)(=O)c1cn(C)cn1)[C@@H](C)CN(C(=O)Nc1ccc(F)cc1)[C@@H](C)CO
→ 21	8
COc1ccc(S(=O)(=O)N(C)C[C@@H]2Oc3c(NS(=O)(=O)c4c(C)noc4C)cccc3C(=O)N([C@@H](C)CO)C[C@@H]2C)cc1
→ -7	-5
Fc1cccc(-c2ccc(C3[C@H]4CNC[C@@H]3N4Cc3cccnc3)cc2)c1 (stereo partly specified)
→ 3	6
Cc1noc(C)c1NC(=O)N[C@H]1CC[C@@H](CCNC(=O)C2CCCCC2)O[C@@H]1CO
→ 8	6
Cc1ccc(S(=O)(=O)N2C[C@@H](O)COC[C@@H]3O[C@H](CC(=O)NCC4CCCCC4)CC[C@H]32)cc1
→ -2	-2

Look-ups from the entries so far.
Result for C[C@@H]1CN([C@@H](C)CO)S(=O)(=O)c2ccc(C#CC3(O)CCCC3)cc2O[C@H]1CN(C)C(=O)Cc1cccnc1 under Vaccinia inh Venus: -6
Result for COc1ccc(-c2cnc3c(c2)C(=O)N([C@@H](C)CO)C[C@@H](C)[C@H](CN(C)C)O3)cc1 under Vaccinia inh: 14

Continued.
Below each compound: Vaccinia inh	Vaccinia inh Venus
CN1C(=O)c2cc(NC(=O)Cc3cccs3)ccc2OC[C@@H]2O[C@@H](CC(=O)N[C@@H]3CCN(Cc4ccccc4)C3)CC[C@H]21
→ -4	-2
CN(C)C(=O)c1cccc(-c2ccc([C@@H]3[C@H](CO)N4CCCCN(C(=O)C5CCC5)C[C@@H]34)cc2)c1
→ -2	-1
O=C(Cn1cc(CN2C(=O)COC[C@H]2c2ccccc2)nn1)Nc1nccs1
→ 8	9
COc1ccccc1C#Cc1ccc2c(c1)O[C@H](CN(C)C(C)=O)[C@H](C)CN([C@H](C)CO)S2(=O)=O
→ -22	-16
C[C@H]1CN([C@@H](C)CO)C(=O)c2cc(NC(=O)CCC(F)(F)F)ccc2O[C@H]1CN(C)S(C)(=O)=O
→ 8	3
COc1ccccc1-c1ccc2c(c1)O[C@@H](CN(C)Cc1ccc3c(c1)OCO3)[C@@H](C)CN([C@H](C)CO)S2(=O)=O
→ ?	.
C[C@@H]1CCCCO[C@H](CN(C)C(=O)Nc2cccc3ccccc23)[C@H](C)CN([C@@H](C)CO)C(=O)c2cc(NS(=O)(=O)c3ccc(F)cc3)ccc2O1
→ 3	1
CC(C)NC(=O)N[C@H]1CC[C@@H](CCNC(=O)C2CCC2)O[C@@H]1CO
→ -9	-1
CCCN1[C@@H]2c3ccc(C4=CCCCC4)c(=O)n3C[C@H]1[C@H](CO)[C@H]2C(=O)N1CCc2ccccc2C1
→ -8	-2
O=C(NC1CCCC1)[C@H]1[C@H](CO)[C@H]2Cn3c(ccc(-c4cccnc4)c3=O)[C@@H]1N2CCc1ccccc1
→ -1	1
O=C(C[C@@H]1C[C@H]2c3cc(NC(=O)CC4CC4)ccc3O[C@H]2[C@@H](CO)O1)NCc1cccc(F)c1
→ 3	-4
CCCNC(=O)N1[C@H](C#N)[C@@H](c2ccccc2C2=CCCC2)[C@@H]1CO
→ -9	-11
CCC(=O)Nc1ccc2c(c1)C(=O)N(C)C[C@H](OC)[C@@H](C)CN(CC1CCCCC1)[C@@H](C)CO2
→ -18	-11
Cc1noc(C)c1NC(=O)Nc1ccc2c(c1)C(=O)N([C@H](C)CO)C[C@H](C)[C@@H](CN(C)C(=O)NC1CCCCC1)OCCCC[C@@H](C)O2
→ 23	8
CO[C@@H]1CN(C)C(=O)c2cc(NC(=O)Nc3cc(F)ccc3F)ccc2OC[C@@H](C)N(C(=O)c2cnccn2)C[C@H]1C
→ 12	8

Part of the list above, field by field:
SMILES: COc1ccccc1C#Cc1ccc2c(c1)O[C@H](CN(C)C(C)=O)[C@H](C)CN([C@H](C)CO)S2(=O)=O
  Vaccinia inh: -22	Vaccinia inh Venus: -16

SMILES: C[C@H]1CN([C@@H](C)CO)C(=O)c2cc(NC(=O)CCC(F)(F)F)ccc2O[C@H]1CN(C)S(C)(=O)=O
  Vaccinia inh: 8	Vaccinia inh Venus: 3

SMILES: COc1ccccc1-c1ccc2c(c1)O[C@@H](CN(C)Cc1ccc3c(c1)OCO3)[C@@H](C)CN([C@H](C)CO)S2(=O)=O
  Vaccinia inh: ?	Vaccinia inh Venus: .

The list goes on.
Below each compound: Vaccinia inh	Vaccinia inh Venus
CCCN1[C@@H]2Cn3c(ccc(-c4cccc(F)c4)c3=O)[C@H]1[C@@H](C(=O)NCC)[C@@H]2CO
→ 18	14
C[C@@H]1CN([C@@H](C)CO)C(=O)c2ccccc2-c2ccccc2CO[C@@H]1CN(C)S(=O)(=O)c1ccccc1C#N
→ 7	0
O=C(C[C@H]1CC[C@H]2[C@@H](COC[C@H](O)CN2C(=O)c2ccccc2F)O1)N1CCN(c2ccccc2)CC1
→ 5	12
C[C@@H]1CN([C@@H](C)CO)C(=O)Cc2cc(NS(C)(=O)=O)ccc2O[C@@H]1CN(C)Cc1ccccc1
→ 5	0
C[C@H](NC(=O)C[C@H]1CC[C@H](NC(=O)Cc2ccccn2)[C@@H](CO)O1)c1ccccc1
→ 3	3
COc1ccc(NC(=O)Nc2ccc3c(c2)CC(=O)N([C@@H](C)CO)C[C@H](C)[C@@H](CN(C)C(=O)NC2CCCCC2)O3)cc1
→ 9	3
O=C([C@@H]1[C@@H](CO)[C@@H]2Cn3c(cccc3=O)[C@@H]2N1C(=O)CC1CC1)N1CCc2ccccc2C1
→ 4	2
CC(C)(O)c1cn([C@H]2C[C@@H]3O[C@@H](CO)CC[C@@H]3O[C@@H]2CCc2ccc(-c3ccncc3)cc2)nn1
→ 12	4
COc1ccc(-c2ccc3c(c2)O[C@@H](CN(C)C(=O)Nc2ccccc2F)[C@H](C)CN([C@H](C)CO)S3(=O)=O)cc1
→ -32	-27
COc1ccc(CN(C)C[C@@H]2OCCCC[C@@H](C)Oc3ccc(NC(=O)c4ccccc4)cc3C(=O)N([C@H](C)CO)C[C@H]2C)cc1
→ ?	.
Cc1cccc(-c2ccc(C3[C@@H]4CN(C(=O)C5CCOCC5)C[C@H]3N4)cc2)c1 (stereo partly specified)
→ 4	-13
O=C(C[C@H]1C[C@H]2c3cc(NC(=O)C4CCOCC4)ccc3O[C@H]2[C@H](CO)O1)NCCc1ccccc1
→ 28	18
COc1ccc2c3c([nH]c2c1)[C@@H](CO)N(CC1CCOCC1)CC31CN(C(=O)C2CCOCC2)C1
→ 17	18
O=S(=O)(NC1CCN(Cc2ccc(OCCO)cc2)CC1)c1cc(C(F)(F)F)ccc1Cl
→ ?	.
COc1ccc(NC(=O)Nc2ccc3c(c2)C(=O)N([C@@H](C)CO)C[C@H](C)[C@H](CN(C)C(=O)NC(C)C)OCCCC[C@@H](C)O3)cc1
→ 0	0
C[C@H](CO)N1C[C@H](C)[C@H](CN(C)C(=O)Nc2cccc3ccccc23)Oc2c(NS(=O)(=O)c3cccs3)cccc2C1=O
→ 12	13
N#Cc1ccc(-c2ccc([C@H]3[C@H]4CN(C(=O)C5CCCCC5)CC(=O)N4[C@H]3CO)cc2)cc1
→ -27	-34
C[C@H]1CN([C@@H](C)CO)C(=O)c2cc(NC(=O)CCN3CCOCC3)ccc2O[C@H]1CN(C)Cc1ccccc1
→ -19	-16
CN1C(=O)c2cc(NS(C)(=O)=O)ccc2OC[C@H]2O[C@H](CC(=O)N3CCOCC3)CC[C@H]21
→ 12	12
COc1ccc(NC(=O)Nc2ccc3c(c2)C(=O)N([C@@H](C)CO)C[C@H](C)[C@H](CN(C)C(=O)Nc2cccc4ccccc24)O3)cc1
→ 12	18
CC(C)NC(=O)N[C@@H]1CC[C@@H](CC(=O)NCCCN(C)C)O[C@@H]1CO
→ 9	12
O=C(Nc1cc(F)ccc1F)N[C@@H]1CC[C@@H](CC(=O)N2CCc3ccccc3C2)O[C@H]1CO
→ -16	-6
C[C@H]1CN([C@@H](C)CO)S(=O)(=O)c2ccc(-c3ccncc3)cc2O[C@@H]1CN(C)C(=O)c1ccc2c(c1)OCO2
→ 12	3
CN(C[C@@H]1N[C@@H](CO)[C@@H]1c1ccc(C2=CCCC2)cc1)S(C)(=O)=O
→ 4	5
N#C[C@@H]1[C@@H](c2ccccc2C2=CCCCC2)[C@H](CO)N1C(=O)c1cccc(F)c1
→ 7	9
O=C(Nc1ccc2c(c1)OCO2)N[C@H]1CC[C@@H](CCNC(=O)C2CC2)O[C@@H]1CO
→ 3	5
CCCNC(=O)C[C@H]1CC[C@H]2[C@H](COc3ccc(NC(=O)NCCC)cc3C(=O)N2C)O1
→ 13	7
COc1ccc(S(=O)(=O)N(C)C[C@@H]2OCCCC[C@H](C)Oc3ccc(NS(=O)(=O)c4ccccc4)cc3C(=O)N([C@@H](C)CO)C[C@H]2C)cc1
→ -17	-17
CCS(=O)(=O)Nc1ccc2c(c1)C(=O)N(C)[C@H]1CC[C@H](CC(=O)N3CCN(C)CC3)O[C@@H]1CO2
→ 1	3

Taken from the listing for reference:
Below each compound: Vaccinia inh	Vaccinia inh Venus
C[C@H](CO)N1C[C@H](C)[C@H](CN(C)C(=O)Nc2cccc3ccccc23)Oc2c(NS(=O)(=O)c3cccs3)cccc2C1=O
→ 12	13
N#Cc1ccc(-c2ccc([C@H]3[C@H]4CN(C(=O)C5CCCCC5)CC(=O)N4[C@H]3CO)cc2)cc1
→ -27	-34
C[C@H]1CN([C@@H](C)CO)C(=O)c2cc(NC(=O)CCN3CCOCC3)ccc2O[C@H]1CN(C)Cc1ccccc1
→ -19	-16
CN1C(=O)c2cc(NS(C)(=O)=O)ccc2OC[C@H]2O[C@H](CC(=O)N3CCOCC3)CC[C@H]21
→ 12	12
